High-throughput results deposited in PubChem by National Center for Advancing Translational Sciences (NCATS).
Cruzain Triton: inhibitors of Trypanosoma cruzi cruzain with detergent. P25779. purified cruzain, Z-FR-AMC fluorescence, 0.01% Triton. Potency, µM, for inactives: max response, negative = inhibition, actives largely listed as inhibitors. 200,000 compounds, 0.43% hits; active = well fitted curve in the direction sought with a large enough effect; inconclusive = small, poorly fitted or top-dose-only effect, or another doubt; inactive = no such curve, though single readings can be large; an effect the other way counts as inactive or inconclusive;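 note: plate controls were neutral wells for no effect and buffer without enzyme for full effect; nearly all actives have a fitted effect of over 40% in size; top concentration of the series not given in the record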
Target sequence (P25779 123-467 limits assumed): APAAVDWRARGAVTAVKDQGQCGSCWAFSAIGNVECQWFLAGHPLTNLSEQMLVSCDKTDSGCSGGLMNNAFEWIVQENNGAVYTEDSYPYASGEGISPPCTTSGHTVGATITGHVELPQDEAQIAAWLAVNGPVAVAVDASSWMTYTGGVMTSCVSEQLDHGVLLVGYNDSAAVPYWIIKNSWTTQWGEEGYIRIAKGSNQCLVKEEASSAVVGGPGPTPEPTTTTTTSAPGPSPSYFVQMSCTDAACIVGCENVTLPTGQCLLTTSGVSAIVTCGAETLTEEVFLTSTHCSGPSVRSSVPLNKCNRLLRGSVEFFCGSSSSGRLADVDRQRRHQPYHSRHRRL
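Cruzain (1.5 nM) preincubated 15 min at RT with compound in 100 mM sodium acetate pH 5.5, 5 mM DTT, 0.01% Triton X-100. Reaction started with 2 uM Z-FR-AMC; AMC fluorescence (ex 360/em 450 nm) change over 60 s gave rate.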
StopGo reporter: lowers the luciferase signal of an FMDV 2A StopGo reporter. human cells with a luciferase reporter of 2A StopGo recoding; control for the full effect not named in the record. Potency, µM (highest dose often 57.9 µM), without a hit: at the highest dose signal change, negative = less light. 410,000 compounds, 1.2% hits; active = well fitted falling curve with a large enough effect; inconclusive = small, poorly fitted or top-dose-only effect; inactive = no such curve, though single readings can be large or run the other way; tested in HEK293T cells; note: % is set by controls: 0 for no effect and ±100 for the full control effect; nearly all actives have a fitted effect of over 45% in size; luciferase light after 4 h
NS1 inh: inhibitors of influenza NS1 protein function; S. cerevisiae slowed by influenza A NS1, growth recovery by OD600; Potency, µM (series often up to 46.1 µM), inactives show top-dose activity, positive = more growth; 270,000 compounds, 0.4% hits; note: actives are rising curves; nearly all actives have a fitted effect of over 50% in size
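In this qHTS, NS1 from influenza A is expressed in budding yeast, where it slows growth. Cells are switched from glucose to 2% galactose medium (pH 6.0, -URA), treated with compound, and growth recovery is read at OD600.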
Cruzain inh noDet: inhibitors of Trypanosoma cruzi cruzain without detergent; Potency, µM, for the others: max response, negative = inhibition, actives largely listed as inhibitors; purified cruzain, Z-FR-AMC fluorescence, no detergent; 200,000 compounds, 2.3% hits; active = well fitted curve in the direction sought with a large enough effect; inconclusive = small, poorly fitted or top-dose-only effect, or another doubt; inactive = no such curve, though single readings can be large; an effect the other way counts as inactive or inconclusive;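 note: plate controls were enzyme without inhibitor for no effect and buffer without enzyme for full effect; nearly all actives have a fitted effect of over 40% in size; top concentration of the series not given in the record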
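Detergent-free condition (0.00005% Triton X-100) in acetate buffer pH 5.5 with DTT. 1.5 nM enzyme and compound were pre-mixed 15 min, then 2 uM Z-FR-AMC substrate added; reaction progress from fluorescence change between first and third reads (60 s).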
LASV entry inh: blocks Lassa virus binding to or entry into cells; Potency, µM (highest dose often 37.9 µM), for inactives: top-dose activity change, negative = inhibition, most hits filed as inhibitors; AID 540256; 300,000 compounds, 1.2% hits; Lassa virus pseudotype entry inhibition, cell reporter; control for the full effect not named in the record; active means well fitted inhibition curve with a large enough effect; inconclusive means small, poorly fitted or top-dose-only effect, or effect the other way; inactive means flat fitted curve, though single readings scatter; tested in HEK293 cells; note: % is set by controls: 0 for no effect and ±100 for the full control effect; nearly all actives have a fitted effect of over 50% in size; luciferase read-out
SARS PLP yeast: SARS-CoV PLP inhibition in yeast; Potency, µM (highest dose often 32.9 µM), without a hit: at the highest dose activity, positive = growth rescue; AID 485353; S. cerevisiae expressing SARS-CoV PLpro, growth rescue; control for the full effect not named in the record; 330,000 compounds, 0.19% hits; note: 0% is about no effect; nearly all actives have a fitted effect of over 55% in size; growth read by luminescence after 48 h
MARV entry inh: blocks Marburg virus binding to or entry into cells | AID 540276 | 300,000 compounds, 1.8% hits | Marburg virus pseudotyped entry inhibition, cell reporter; control for the full effect not named in the record; about a third of the inactives were read at about 46 µM | Potency, µM (titrated, usually from 37.8 µM), for inactives: at the top dose activity change, negative = inhibition, hits mostly inhibitors; active = well fitted inhibition curve with a large enough effect; inconclusive = small, poorly fitted or top-dose-only effect, or effect the other way; inactive = flat fitted curve, though single readings scatter; tested in HEK293 cells; about a fifth of its hits are not listed in these tables; note: % is set by controls: 0 for no effect and ±100 for the full control effect; luciferase read-out
RE007 growth inh: less growth of the S. pombe RE007 Vpr strain. S. pombe RE007 Vpr strain, BacTiter-Glo ATP luminescence, 24 h; control for the full effect not named in the record. Potency, µM (highest dose often 92.2 µM), inactives show top-dose activity change, negative = less growth. 360,000 compounds, 0.21% hits. AID 651644; active = well fitted falling curve with a large enough effect; inconclusive = small, poorly fitted or top-dose-only effect; inactive = no such curve, though single readings can be large or run the other way;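 note: % is set by controls: 0 for no effect and ±100 for the full control effect; nearly all actives have a fitted effect of over 50% in size; the assay follows cell death caused by Vpr and the record does not say whether a fall means rescue or toxicity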
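Fission yeast strain RE007, carrying one chromosomally integrated HIV-1 vpr copy, was seeded at OD 0.01 in PMG+AL medium with 23 nL pinned compound. After 24 h at 30 °C and 99% humidity, viability was read by BacTiter-Glo luminescence.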
* marks the source's active call; other numbers are inactive results; ? = inconclusive; · = not tested or not shown; & = joins results of further samples; [ ] = dose if it differs, or a comment. Unless noted, calls come from the whole dose curve; as a rule, active means well fitted rising curve with a large enough effect; inconclusive means small, poorly fitted or top-dose-only effect; inactive means no such curve, though single readings can be large or run the other way. Potency is the fitted concentration of half-maximal effect. An unsorted share of the library. About 4.6% of those tested had a hit in this group.

SMILES | Cruzain Triton | StopGo reporter | NS1 inh | Cruzain inh noDet | LASV entry inh | SARS PLP yeast | MARV entry inh | RE007 growth inh
O=S(=O)(NC1CC2CCC1C2)c1ccc(Br)cc1 (stereo not given) | · | 50%[activator] | -74% | · | 22% | -15% | 4% | 6%
COc1ccc(Cl)cc1NC(=O)CN(C)S(=O)(=O)c1ccc(Br)s1 | -5.5% | -16% | · | 2% | 4%[46.1 µM] | · | -3%[46.1 µM] | ·
Cc1nn(CC(=O)NCC(C)c2ccccc2)c(=O)c2cc(-c3ccccc3)nn12 (stereo not given) | · | -14% | 3% | · | -12%[46.1 µM] | ? | 11%[46.1 µM] | -15%
COc1ccc(NC(=S)NC(=O)/C=C/c2cccs2)cc1 | · | 19% | · | · | -2% | -2% | ? | -26%
Cc1nn(C)c(C)c1S(=O)(=O)N(CC(=O)N1CCN(c2ccccc2)CC1)c1ccc(C(C)C)cc1 | -0.8% | -23% | · | -8% | 3%[46.1 µM] | · | 12%[46.1 µM] | ·
CC(NC(=O)/C(=C/c1ccc2c(c1)OCO2)NC(=O)c1cccc([N+](=O)[O-])c1)C(=O)O (stereo not given) | · | -7% | · | · | 3% | 2% | 8%[46.1 µM] | -12%
O=C(NCc1ccccc1)c1c(Cl)nc(Cl)c(Cl)c1Cl | · | -14% | 0% | · | -26% | 0% | ? | 8%
CC(C)C(c1nnnn1C(C)(C)C)N1CCOCC1 (stereo not given) | 1.7% | 17% | 12% | 11% | -21% | 0% | ? | 9%
COc1ccc(-c2nnn(CC(=O)NCc3ccc4c(c3)OCO4)n2)cc1OC | · | -6% | · | · | -19%[46.1 µM] | -1% | -19%[46.1 µM] | 14%
O=C(O)c1cc(-c2cccs2)nc2ccc(F)cc12 | · | 1% | -3% | · | · | 0% | · | 12%
COc1cccc(NC(=O)C(=O)N/N=C/c2ccc3c(c2)OCO3)c1 | · | 50%[activator] | 14% | · | 15% | -3% | 21% | ?
NC1=NC(c2cccc(Cl)c2)n2c(nc3ccccc32)N1 (stereo not given) | 4.8% | -23% | · | -3% | -18%[46.1 µM] | · | -20%[46.1 µM] | ·
COc1ccc(-c2[nH]ncc2N=Nc2cc(C)cc(C)c2)cc1 | · | -14% | · | · | ? | -3% | ? | 4%
COc1ccc(CN2CCNC(=O)C2CC(=O)O)cc1OC (stereo not given) | -1.7% | -14% | -2% | -13% | · | 21% | · | -3%
CC(NC(=O)c1ccco1)C(c1cccs1)N1CCN(c2ccccc2F)CC1 (stereo not given) | 1.9% | · | -54% | -14% | ? | -15% | ? | 21%
O=C(CCCc1c[nH]c2ccccc12)NCc1ccccc1C(F)(F)F | · | 11% | -8% | · | · | 0% | · | -21%
CCCCCN(C(=O)CCC(=O)OCCOc1cccc(Cl)c1)c1c(N)n(CCCC)c(=O)[nH]c1=O | · | -21% | · | · | -3% | -6% | 0% | -8%
O=C1NC(=Nc2cccnc2)S/C1=C\c1cccc(F)c1 | · | 11% | 0% | · | -13% | -1% | 9% | -14%
CC1CCCC(NC(=S)NC(=O)c2ccco2)C1C (stereo not given) | · | 0% | · | · | -14% | 1% | 8% | -20%
CCCNC(=O)CN1CCN(c2cc3ccccc3c(Cl)n2)CC1 | · | -20% | -38% | · | -17%[46.1 µM] | -28% | -11%[46.1 µM] | -17%
O=c1c2ccccc2nc2n1CCCS2 | 3.5% | · | 7% | 8% | -2% | 1% | -1% | 1%
CCOC(=O)c1cc(-c2ccccc2)n(CC(=O)Nc2cccc(OC)c2)c1C | -1.9% | -16% | ? | 15% | -30% | 4% | ? | 0%
Cc1c([N+](=O)[O-])ccc(S(=O)(=O)N2CCC(C(N)=O)CC2)c1C | -4.2% | 26% | -3% | 1% | ? | 5% | 3% | 10%
O=C(NCCCN1CCOCC1)c1ccc(-n2nc(C(F)(F)F)cc2-c2cccs2)cc1 | 6.5% | ? | 2% | 7% | -9% | -6% | ? | 10%
CCOc1ccc(NC(=O)Cc2ccccc2)cc1 | 9.3% | 7% | -9% | -6% | -1% | 23% | ? | -26%

Compound profiles (already shown).
Entry for `CCOc1ccc(NC(=O)Cc2ccccc2)cc1` → Cruzain Triton = 9.3%; StopGo reporter = 7%; NS1 inh = -9%; Cruzain inh noDet = -6%; LASV entry inh = -1%; SARS PLP yeast = 23%; MARV entry inh = ?; RE007 growth inh = -26%
Entry for `CC(NC(=O)c1ccco1)C(c1cccs1)N1CCN(c2ccccc2F)CC1` (stereo not given) → Cruzain Triton = 1.9%; StopGo reporter = ·; NS1 inh = -54%; Cruzain inh noDet = -14%; LASV entry inh = ?; SARS PLP yeast = -15%; MARV entry inh = ?; RE007 growth inh = 21%

In a second layout: results already given
Values run as follows: Cruzain Triton	StopGo reporter	NS1 inh	Cruzain inh noDet	LASV entry inh	SARS PLP yeast	MARV entry inh	RE007 growth inh
O=C(O)c1cc(-c2cccs2)nc2ccc(F)cc12
→ ·	1%	-3%	·	·	0%	·	12%
COc1cccc(NC(=O)C(=O)N/N=C/c2ccc3c(c2)OCO3)c1
→ ·	50%[activator]	14%	·	15%	-3%	21%	?
NC1=NC(c2cccc(Cl)c2)n2c(nc3ccccc32)N1 (stereo not given)
→ 4.8%	-23%	·	-3%	-18%[46.1 µM]	·	-20%[46.1 µM]	·
COc1ccc(-c2[nH]ncc2N=Nc2cc(C)cc(C)c2)cc1
→ ·	-14%	·	·	?	-3%	?	4%
COc1ccc(CN2CCNC(=O)C2CC(=O)O)cc1OC (stereo not given)
→ -1.7%	-14%	-2%	-13%	·	21%	·	-3%

(listing goes on)
SMILES | Cruzain Triton | StopGo reporter | NS1 inh | Cruzain inh noDet | LASV entry inh | SARS PLP yeast | MARV entry inh | RE007 growth inh
CCn1cc(CNc2nc3nonc3nc2N2CCCCC2)cn1 | · | -28% | 0% | · | 1%[46.1 µM] | -1% | -13%[46.1 µM] | 11%
C/C(=N\NC(=O)c1nnn(-c2nonc2N)c1CN(C)c1ccccc1)c1ccc(O)cc1 | · | -10% | 8% | · | · | -1% | · | 0%
COc1ccc(C)cc1COC(=O)c1[nH]c(C)c(C(C)=O)c1C | · | -13% | -19% | · | ? | 0% | ? | -14%
Cc1cnc(NC(=O)c2sc(Nc3ccccc3)nc2N)o1 | · | 50%[activator] | -2% | · | · | 1% | · | -5%
O=C(O)c1ccccc1C(=O)Nc1ccc(Br)c2cccnc12 | -5.7% | -1%&25% | ? | -18% | ? | 0% | 2%&25%[46.1 µM] | -18%
Cc1cc(Br)cc(C)c1OCC(=O)Nc1ccc(S(=O)(=O)Nc2ncccn2)cc1 | -7.0% | -14% | · | -28% | -16%[46.1 µM] | · | -1%[46.1 µM] | ·
COc1ccc(S(=O)(=O)N2Cc3ccccc3CC2C(=O)O)cc1 (stereo not given) | 0.8% | 5% | 0% | 7% | -16% | 10% | 11% | 15%[3.69 µM]
COc1cccc(CN2CCN(Cc3cccc(F)c3)CC2)c1 | · | -3% | -3% | · | · | -10% | · | -14%
COCc1cc(=O)[nH]c2cc(NC(=O)c3cccc(OC)c3)c(C)cc12 | · | 10% | 0% | · | -5%[46.1 µM] | 0% | 6%[46.1 µM] | -5%
COc1ccc(NC(=O)c2oc3c(c2C)-c2nn(Cc4c(F)cccc4Cl)cc2CC3)c(OC)c1 | 0.4% | -15% | · | -1% | 18%[46.1 µM] | · | · | ·
O=C(C(=O)N1CCOCC1)c1cn(CCOc2ccccc2)c2ccccc12 | · | 6% | -8% | · | -8%[46.1 µM] | 1% | -15%[46.1 µM] | 1%
CC(C)(C)C1CCc2c(sc3c2C(=O)NC(c2ccco2)N3)C1 (stereo not given) | -13% | · | -44% | ? | 4% | -19% | ? | 4%
CC(=O)NCC(=O)N(C)C(C(=O)Nc1ccc2c(c1)OCCO2)c1ccc(C)cc1 (stereo not given) | · | 14% | · | · | 1% | -6% | 8%[46.1 µM] | -3%
CC(Sc1ccccc1)C(=O)N1CCN(S(=O)(=O)c2cccc(Br)c2)CC1 (stereo not given) | · | -16% | -19% | · | -4% | -17% | ? | 7%
Cc1ccccc1CN1CCN(c2ccc(Cl)cc2)CC1 | -3.1% | -20% | -1% | 9% | -9% | 4% | -8% | -24%
CCOC(=O)CSC1=C(C#N)C(c2sccc2C)C(C(C)=O)=C(C)N1 (stereo not given) | -8.2% | · | -14% | -5% | -24% | -4% | 0% | 0%
COc1ccc(NC(=O)c2cnc(Nc3ccc(C)c(Cl)c3)c3ccccc23)c(OC)c1 | -1.0% | -9% | · | -5% | 4%[46.1 µM] | · | ? | ·
COCCN1C(=O)C(=O)/C(=C(/O)c2ccc(S(=O)(=O)N3CCCCC3)cc2)C1c1ccc(O)c(OC)c1 (stereo not given) | · | 17% | -2% | · | · | 3% | · | -3%
CCn1c2ccccc2c2cc(NC(=O)c3cccc(OC)c3)ccc21 | -0.2% | 23% | -14% | ? | ? | -12% | ? | -4%
CCO[C@@H]1OC(C(=O)NCc2nc3ccccc3[nH]2)=C[C@H](C)[C@H]1CCCO | · | -4% | -5% | · | · | 0% | · | 2%
CC(=O)N1N=C(c2cccs2)CC1c1cccc([N+](=O)[O-])c1 (stereo not given) | · | -27% | 9% | · | 10% | 0% | 3% | 6%
COc1ccccc1-c1c(C)oc2cc(OCC(=O)OCc3ccccc3)ccc2c1=O | -7.3% | -15% | -17% | -1% | 5% | -26% | -1% | -7%
O=C(CSCc1c(Cl)cccc1Cl)N1CCOCC1 | · | 4% | 3% | · | -17%[46.1 µM] | 1% | 7%[46.1 µM] | 14%
C=CCN(c1ccccc1C(=O)O)S(=O)(=O)/C=C/c1ccccc1 | · | 4% | -4% | · | 8% | -2% | ? | -13%
